# 2A Renilla – FMDV 2A StopGo reporter, Renilla signal; AID 1745857; 120,000 tested, 0.32% active; HEK cells with a luciferase reporter of 2A StopGo recoding; Potency, µM (top dose mostly 57.5 µM), for inactives: at the top dose signal change, negative = less light; active means well fitted falling curve with a large enough effect; inconclusive means small, poorly fitted or top-dose-only effect; inactive means no such curve, though single readings can be large or run the other way; note: nearly all actives have a fitted effect of over 55% in size; overnight with compound
# StopGo FLuc – FMDV 2A StopGo reporter, firefly signal; 120,000 tested, 0.23% active; AID 1745856; Potency, µM (doses to about 57.5 µM), inactives show at the highest dose signal change, negative = less light; HEK cells with a luciferase reporter of 2A StopGo recoding; active = well fitted falling curve with a large enough effect; inconclusive = small, poorly fitted or top-dose-only effect; inactive = no such curve, though single readings can be large or run the other way; note: nearly all actives have a fitted effect of over 60% in size; overnight with compound
# Numbers without * were called inactive; ? = inconclusive; & = joins results of further samples; [ ] = dose if it differs, or a comment. % is set by controls: 0 for no effect and ±100 for the full control effect; potency is the fitted concentration of half-maximal effect.
SMILES,2A Renilla,StopGo FLuc
CCCNC(=O)C1CN(C(=O)c2nn(-c3ccccc3)c(=O)c3ccccc23)c2ccccc2O1 (stereo not given),34%[activator],23%
Cc1nnc(NC(=O)CSCc2cc(=O)c3cc(Cl)ccc3[nH]2)s1,-10%,-16%
CCCCCC[C@@H](CCC)C(=O)O,-7%,-15%
COc1ccc(NC(=O)CSc2cn(CCNC(=O)c3ccc(OC)cc3)c3ccccc23)cc1,55%[activator],-19%
COc1ccc(C(=O)C(C)Oc2ccc(C#N)cc2OC)cc1 (stereo not given),4%,-1%
NC(=O)C(Sc1ccc(C(F)(F)F)cn1)c1ccccc1 (stereo not given),-7%,-7%
CCOc1cccc(COC(=O)c2cccc(S(=O)(=O)N3CCOCC3)c2)c1OC(F)F,6%,0%
CNC(=O)c1cc2cc(N(C)S(=O)(=O)c3ccc(Cl)cc3)ccc2s1,16%,9%
CC(C)(C)OC(=O)N1CCN(C(C(=O)O)c2c[nH]c3ccc(OCC#N)cc23)CC1 (stereo not given),-7%,5%
Cc1cccc(NC(=O)CCNS(=O)(=O)c2ccc3c(c2)CCCC(=O)N3)c1C,4%,-1%

# Grouped by structure, the compounds so far with a COOH group.
SMILES,2A Renilla,StopGo FLuc
CCCCCC[C@@H](CCC)C(=O)O,-7%,-15%
CC(C)(C)OC(=O)N1CCN(C(C(=O)O)c2c[nH]c3ccc(OCC#N)cc23)CC1 (stereo not given),-7%,5%

# (next part)
SMILES,2A Renilla,StopGo FLuc
COc1ccc(C(=O)NCc2ccc3c(c2)CCN3C(C)=O)c(OC)c1,60%[activator],38%[activator]
O=C(CN1C(=O)CSc2ccccc21)NOCc1ccccc1,-3%,-9%
COC(=O)CNC(=O)c1cc(C)ccc1C,-1%,-2%
O=C(CSc1nc2ccccc2c(=O)n1CCCN1CCOCC1)c1ccccc1,1%,-4%
CCOc1ccccc1C(=O)Oc1ccc(-c2ccc(C#N)cc2)cc1,7%,0%
COC(=O)c1ccccc1NC(=O)c1cccn(Cc2cccc(Cl)c2)c1=O,17%,-3%
O=C1CCCCCC1Sc1nccc(C(F)(F)F)n1 (stereo not given),25%,21%
CCn1cc2nc(SCC(=O)Nc3ccc(C)cc3C)n(Cc3ccc(C)cc3)c(=O)c2n1,0%,-3%
Cn1c(=O)c2c(ncn2CC(=O)Nc2ccccc2Cc2ccccc2)n(C)c1=O,-2%,-1%
CC(NC(=O)CCC1CCCO1)c1cccs1 (stereo not given),-1%[1.06 µM],0%
CCCOc1cc(O)c2c(=O)cc(-c3ccccc3)oc2c1,-3%,1%
CCCc1cnc2c(c1SCC(=O)Nc1c(C)cc(C)cc1C)c(=O)n(C)c(=O)n2C,2%,-7%
CCc1ccc2c(c1)-c1ccccc1S(=O)(=O)N2CC(=O)N1CCOCC1,41%[activator],35%[activator]
COc1ccc(C[N+]2=C(N)NC3=C4CCCCC4n4c(=O)n(-c5ccccc5)c(=O)n4C3C2)c(OC)c1 (stereo not given),-7%,-7%
CC1(C)CC(=O)C2=C(C1)N(c1cccc(F)c1)C(N)=C(C#N)C21C(=O)Nc2ccccc21 (stereo not given),-1%,-6%
Cc1ccc(CN2C(=O)C(=O)c3cc(Br)cc(C)c32)cc1,18%,-6%
CCOC(=O)c1c(C)[nH]c(C)c1S(=O)(=O)N1CCC(C(=O)NCc2ccc(OC)cc2)CC1,84%[activator],-18%
CCOC(=O)c1ccccc1NC(=O)N(Cc1ccco1)C1CCN(C(C)=O)CC1,58%[activator],59%[activator]
CCN(C(=O)Cn1nc(-c2ccc(Br)cc2)ccc1=O)c1cccc(C)c1,-9%,3%
O=c1oc2ccccc2c(N2CCCC2)c1NS(=O)(=O)c1cccc(F)c1,-7%,-3%

# The list goes on, starting with the last four of the part before.
SMILES,2A Renilla,StopGo FLuc
CCOC(=O)c1c(C)[nH]c(C)c1S(=O)(=O)N1CCC(C(=O)NCc2ccc(OC)cc2)CC1,84%[activator],-18%
CCOC(=O)c1ccccc1NC(=O)N(Cc1ccco1)C1CCN(C(C)=O)CC1,58%[activator],59%[activator]
CCN(C(=O)Cn1nc(-c2ccc(Br)cc2)ccc1=O)c1cccc(C)c1,-9%,3%
O=c1oc2ccccc2c(N2CCCC2)c1NS(=O)(=O)c1cccc(F)c1,-7%,-3%
Cc1cc(C)c2nc(-c3cccc(Cl)c3)c(C)c(C(=O)NC3CCCCC3)c2c1,3%,-7%
O=C1CSc2ccc(C(=O)NCc3ccccc3)cc2N1,0%,17%
COc1ccc(NS(=O)(=O)c2ccc(-c3coc(C)n3)cc2)c(OC)c1,?,?
CCc1cc2c(cc3c(=O)n(CC(=O)NCc4cccc(Cl)c4)nc(CC)n32)s1,-5%,-5%
O=C(Cc1cccs1)NC1CCCC(C(F)(F)F)C1 (stereo not given),8%,-3%
N#Cc1c(-c2ccccc2)cc(-c2ccc(Cl)cc2)c(C#N)c1N,7%,-1%
COC(=O)c1cc2oc(C)cc2n1Cc1c(C)cc(C)cc1C,-4%,-1%
CC(=O)c1cn(CC(=O)NCc2ccccc2)c2ccccc12,?,16%
CCc1ccc(N2C(=O)CSC23C(=O)N(Cc2ccc(C)cc2)c2ccccc23)cc1 (stereo not given),-6%,0%
COc1cccc(CNC(=O)C2CCCN(S(=O)(=O)c3ccc4c(ccn4C)c3)C2)c1OC (stereo not given),0%,-23%
NC(CS)C(=O)O (stereo not given),-1%,-9%[11.5 µM]
Cc1cc(SC(C)C(=O)N(C)C)nc2ccccc12 (stereo not given),-18%,-8%
CCN(CC)c1nc2ccccc2nc1C(=O)Nc1ccccc1Cl,6%,13%
O=C(Nc1cccnc1)c1cc(-c2ccc(F)cc2)nc2ccccc12,-2%,26%
Cc1ccc(C(=O)Nc2cccc3cnccc23)cc1S(=O)(=O)N1CCCC1,?,-10%
CC(=O)c1c(C)oc2ccc(N(C(=O)Oc3ccccc3)S(=O)(=O)c3ccc(Cl)cc3)cc12,-5%,-14%
COc1ccc(-c2cc3c(=O)n(CC(=O)Nc4cc(C)ccc4C)ccn3n2)cc1,-5%,0%
CCc1nnc(NC(=O)Cc2coc3ccc(C(C)C)cc23)s1,28%,51%[activator]
CC(C)c1ccc(Nc2c(-c3ccc(N(C)C)cc3)nc3cnccn23)cc1,0%,88%[activator]
O=C(CSc1nc2c([nH]c3ccccc32)c(=O)n1-c1cccc(Cl)c1)N1CCOCC1,-3%,-5%
CCCc1ncc(C(O)c2ccc(OC)cc2)n1C (stereo not given),-7%,-17%
NC(=S)NN=C1CCCCCCCCCCCCC1,4%,22%
Cc1ccc(CNC(=O)c2ccc(NC(=O)c3nsc4ccccc34)cc2)cc1,-8%,-51%
Cc1nc2nc(NCc3ccccc3)[nH]n2c(=O)c1CCO,-3%,0%
COc1ccc(C2C(C#N)=C(N)N(c3ccccc3Cl)C3=C2C(=O)CCC3)cc1O (stereo not given),40%[activator],-16%
CCN(CC)c1nc2ncn(CC(=O)Nc3cc(C)cc(C)c3)c(=O)c2s1,0%,13%
Nc1ccncc1,-5%,-11%[11.5 µM]
COc1cc(C(=O)NS(=O)(=O)c2ccccc2C)ccc1Cc1cn(C)c2ccc(NC(=O)OC3CCCC3)cc12,-11%,-13%[11.5 µM]
CCOC(=O)c1sc2nc(C)c3c(c2c1N)CC(C)(C)OC3,0%,8%
CCOc1ccccc1NC(=O)CN(CCc1ccccc1)S(=O)(=O)c1ccc(C)cc1,-9%,-8%

# Entries of single compounds from above. Order of values: 2A Renilla, StopGo FLuc
# `Cc1ccc(CNC(=O)c2ccc(NC(=O)c3nsc4ccccc34)cc2)cc1` is listed as -8%, -51%
# `CCOc1ccccc1NC(=O)CN(CCc1ccccc1)S(=O)(=O)c1ccc(C)cc1` is listed as -9%, -8%
# `COc1ccc(C2C(C#N)=C(N)N(c3ccccc3Cl)C3=C2C(=O)CCC3)cc1O` (stereo not given) is listed as 40%[activator], -16%
# `CCN(CC)c1nc2ncn(CC(=O)Nc3cc(C)cc(C)c3)c(=O)c2s1` is listed as 0%, 13%
# `Nc1ccncc1` is listed as -5%, -11%[11.5 µM]

# Following part:
SMILES,2A Renilla,StopGo FLuc
CCOC(=O)c1sc2ncn(CC(=O)Nc3cc(C)cc(C)c3)c(=O)c2c1C,-6%,-18%
CCCN(CCC)CCCNC(=O)Cn1cnc2sc(C)c(S(=O)(=O)N3CCC(C)CC3)c2c1=O,-5%,-9%
CCCCCCCCCCOc1ccc(C(=O)Oc2ccc(Cl)cc2Cl)cc1,45%[activator],37%
COc1ccc(CCNC(=O)c2cc3c(s2)-c2c(C)cccc2OC3)cc1OC,-13%,-14%
CCOc1ccc(-c2nc(CNC(=O)Nc3ccccc3)c(C)o2)cc1,3%,28%
Cc1ccc(Cn2cc(CCC(=O)NCC(C)c3ccccc3)c3ccccc32)cc1 (stereo not given),16%,-9%
CCN(C(=O)Cn1cnc2sc(C)c(S(=O)(=O)N3CCN(c4ncccn4)CC3)c2c1=O)c1ccccc1F,-8%,-20%
Cc1cc(C)c(C(N)=O)c(NCc2ccccc2C)n1,21%,8%
CC(C)(C)NC[C@H](O)COc1cccc2c1CCCC2=O,-3%,-6%[11.5 µM]
CN(Cc1ccccc1)C(=O)CSc1c2c(nc3ccc(Cl)cc13)CCCC2,-13%,-8%
CCCCn1c(=O)[nH]c(=O)c2c1nc(-c1ccc(OC)c(OCc3ccccc3)c1)n2C,-10%,-1%
O=C(Nc1ccc(SC(F)F)cc1)c1cc(-c2ccccc2)nc2ccccc12,8%,5%
O=C(CCc1cccnc1)Nc1ccccc1,-3%,38%[activator]
O=C1CCc2cc(C(=O)OCC(=O)C3CCCCC3)ccc2N1,?,?
c1cncc(CNCCCN2CCCCC2)c1,-9%,-14%
O=C(CCCc1c[nH]c2ccccc12)N1CCCC1c1ccc(F)cc1 (stereo not given),17%,-2%
CCc1noc(C(C)N2CCC(c3nc4ccccc4o3)CC2)n1 (stereo not given),-3%,55%[activator]
Cc1ccc(NC(=O)COC(=O)c2ccc(C)c(S(=O)(=O)N3CCCCC3)c2)cc1F,48%[activator],15%
COc1ccc(C2C=C(c3ccccc3)Nc3nc(NC(=O)/C=C/c4ccc(Cl)cc4)nn32)cc1 (stereo not given),2%,9%
O[C@H](COc1cccc(Br)c1)CN1CCC(C(O)(c2ccccc2)c2ccccc2)CC1,-4%,-11%
Cc1ccc(-c2csc3ncnc(Sc4nnc(C)s4)c23)cc1,?,?
CC1CCCN(C(=O)c2cc3c(=O)n(C)c4ccccc4c3s2)C1 (stereo not given),-4%,-6%
Cc1ccc(F)cc1NC(=O)CSc1ncc(-c2ccc(F)cc2)o1,-3%,28%
CCC(=O)C1=C(c2ccc(F)cc2)N(C(=O)CC)n2c(nnc2C2CCCCC2)S1,-1%,-10%
Cc1ccc2c(c1)C(Cc1nc3ccccc3c(=O)n1-c1ccc(Br)cc1)C(=O)N2 (stereo not given),-14%&7%,-14%&11%
COCC(=O)N1CCN(c2oc(-c3ccc(C)cc3)nc2S(=O)(=O)c2ccccc2)CC1,25%,-3%
CS(=O)(=O)NC1CCN(C(=O)c2cc(Cl)ccc2F)CC1,-14%,-11%
COc1ccc(C2CC(=O)N3CN(Cc4ccccc4)CSC3=C2C#N)c(OC)c1 (stereo not given),20%,-1%
O=C(Cn1c(=O)n(Cc2ccc(C(=O)NCc3ccccc3Cl)cc2)c(=O)c2ccccc21)Nc1ccc(F)c(Cl)c1,-8%,-12%
Cc1cc(C)c(S(=O)(=O)NCC(c2ccc(N(C)C)cc2)N2CCc3ccccc32)c(C)c1 (stereo not given),120%[activator],-6%
CC(C#N)OC(=O)c1ccccc1Cc1ccccc1 (stereo not given),3%,-2%
N#Cc1c(NC(=O)CSc2nc3ccccc3[nH]2)sc2c1CCC2,-3%,4%
COC(=O)c1noc(-c2ccc(Cl)cc2)n1,3%,1%
Cn1cc(C(C(=O)O)N2CCN(C=O)CC2)c2ccc(C(=O)O)cc21 (stereo not given),11%,-16%
CSc1ccc(Cl)c(C(=O)OCC(=O)NCc2ccc3c(c2)OCO3)c1,-13%,-9%
CCN1CCN(C(c2ccccc2)c2sc3nc(-c4ccco4)nn3c2O)CC1 (stereo not given),12%,0%
CCN(CCCNC(=O)c1cc2c(=O)n(CC)c3ccccc3c2s1)c1ccccc1,-6%,-10%
COc1cc(OC)cc(C(=O)Nc2c(C(=O)Nc3ccc(F)cc3)oc3ccccc23)c1,22%,124%[activator]
Cc1ccc(C(O)(c2ccc(C)c(C)c2)C2CN3CCC2CC3)cc1C (stereo not given),11%,-10%
CN(Cc1ccco1)C(=O)c1cc2ccc(OC(F)(F)F)cc2[nH]1,20%,0%
CN(C)c1oc(/C=C/c2ccc(F)cc2)nc1C#N,-9%,-23%
NC(=O)c1nc(Nc2ccccc2)sc1NC(=O)C12CC3CC(CC(C3)C1)C2,-13%,33%[activator]
O=C(Nc1nnc(C2CC2)s1)c1ccc2ccccc2n1,-18%,102%[activator]
O=C(CSc1nnc(CNC(=O)c2ccccc2F)n1-c1ccccc1)Nc1ccccc1F,84%[activator],22%
COCCCNC(=O)c1cc2n(n1)CCCN(Cc1ccc(C)cc1)C2=O,17%,15%
CC(=O)N(c1cccc(Cl)c1)C1C=CS(=O)(=O)C1 (stereo not given),-8%,-9%
COC(=O)C1=CN(Cc2ccco2)C=C(C(=O)OC)C1c1ccccc1,-3%,-8%
COc1cc(-c2nc(SCC(=O)Nc3ccc(C)cc3)c(-c3ccc(F)cc3)[nH]2)cc(OC)c1OC,16%,0%
O=C(Cn1ccc(=O)[nH]c1=O)NC(c1ccc(F)cc1)c1cccs1 (stereo not given),-10%,-9%

# Bioassay records from PubChem.
